# hNpr1 antagonist: blocks ANP-stimulated signaling of human Npr1 receptor. Potency, µM (top dose mostly 46.3 µM), for the others: at the top dose activity change, negative = inhibition, most hits filed as inhibitors. AID 1347048. P16066. HEK293 hNpr1 GloSensor cGMP, ANP-stimulated luminescence. hit rate 1.6% among 76,000; active = well fitted inhibition curve with a large enough effect; inconclusive = small, poorly fitted or top-dose-only effect; inactive = no such curve, though single readings can be large or run the other way;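 further: nearly all actives have a fitted effect of over 60% in size; nearly all hits also lower the signal before the agonist is added; a reference antagonist and vehicle were the controls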
# Target sequence (P16066 whole entry, looked up): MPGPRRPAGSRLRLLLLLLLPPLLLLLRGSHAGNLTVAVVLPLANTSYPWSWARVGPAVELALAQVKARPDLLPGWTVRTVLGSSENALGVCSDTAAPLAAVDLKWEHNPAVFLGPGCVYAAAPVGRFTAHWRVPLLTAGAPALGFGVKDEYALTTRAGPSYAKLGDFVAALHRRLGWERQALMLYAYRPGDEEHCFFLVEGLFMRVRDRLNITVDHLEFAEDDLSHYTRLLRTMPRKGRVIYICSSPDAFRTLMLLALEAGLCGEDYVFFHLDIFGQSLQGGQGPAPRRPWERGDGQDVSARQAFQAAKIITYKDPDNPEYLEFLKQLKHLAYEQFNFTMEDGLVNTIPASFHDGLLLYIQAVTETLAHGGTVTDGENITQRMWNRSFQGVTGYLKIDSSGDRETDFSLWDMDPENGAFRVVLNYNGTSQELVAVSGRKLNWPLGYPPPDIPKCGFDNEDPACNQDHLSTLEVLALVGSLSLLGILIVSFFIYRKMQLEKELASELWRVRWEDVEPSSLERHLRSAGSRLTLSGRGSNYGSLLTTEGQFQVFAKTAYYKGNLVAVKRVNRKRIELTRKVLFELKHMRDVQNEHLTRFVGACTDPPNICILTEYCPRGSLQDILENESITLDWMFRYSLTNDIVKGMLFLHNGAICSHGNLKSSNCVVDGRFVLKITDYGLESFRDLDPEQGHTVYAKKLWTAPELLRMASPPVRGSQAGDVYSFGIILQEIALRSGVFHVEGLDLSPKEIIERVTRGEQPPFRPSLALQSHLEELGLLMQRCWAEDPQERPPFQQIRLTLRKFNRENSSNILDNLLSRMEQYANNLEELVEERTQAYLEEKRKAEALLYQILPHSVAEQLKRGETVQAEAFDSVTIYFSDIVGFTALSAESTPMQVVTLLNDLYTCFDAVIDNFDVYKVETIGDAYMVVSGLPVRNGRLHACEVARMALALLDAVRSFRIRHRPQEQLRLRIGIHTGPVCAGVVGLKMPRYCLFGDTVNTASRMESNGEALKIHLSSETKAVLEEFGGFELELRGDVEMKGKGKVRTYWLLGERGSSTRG
#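 Compound pre-incubated 30 min at room temperature on GloSensor-loaded HEK293 cells stably carrying hNpr1 and the pGS-40F cGMP biosensor. Stimulation uses hNppA at 0.1 nM final; luminescence is taken at baseline and 20 min post-agonist.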
# * hit, by the source's call; ? = inconclusive; [ ] = another dose, or the depositor's remark. On the % scale 0 is the no-effect control and ±100 the full control effect; potency means the concentration at half of the fitted maximal effect.
SMILES,hNpr1 antagonist
Cc1cccc(C(=O)N2CCCCCCNC(=O)[C@@H]3C[C@@H](C(=O)N4CCc5ccccc5C4)C[C@@H]32)c1,-6%
O=C(O)C[C@@H]1CCN(C(=O)Nc2ccc(OC(F)(F)F)cc2)C[C@@H]1CCN1C[C@@H]2C[C@H](C1)c1cccc(=O)n1C2,-1%
COCC(=O)N1CCC(Cc2nc(C3CCOCC3)no2)CC1,0%
CC(C)(C)NC(=O)N1CCCCCNC(=O)CC1c1ccccc1 (stereo unspecified),-1%
CC1CCN(c2ccc(CNC(=O)c3ccc4c(c3)C(O)CCCCCN4C)cc2)CC1 (stereo unspecified),-16%
N#Cc1cccc(NC(=O)N2CCc3c(nc(-c4ccc(F)cc4)[nH]c3=O)C2)c1,-9%
COc1ccccc1-c1nc(-c2nnn3c2COC(c2ccccc2Cl)C3)no1 (stereo unspecified),34%[activator]
Cc1cc(C(=O)NC[C@@H]2CC[C@H]3C[C@@H]2C3(C)C)ccc1Cl,?
O=C(NCCN1CCCOC1=O)c1ccc2nc(C3CCCCC3)oc2c1,-1%
O=C(c1ccc(F)cc1)N1CCC2(CCCCO2)CC1,-9%
Cc1ccoc1C(=O)N1CCC(N2CCCC(C(=O)NCc3ccccc3)C2)CC1 (stereo unspecified),6%
CC1(C)C(=O)N(CC2CCOCC2)[C@H]2CN(Cc3cccs3)C[C@@H]2[S+]1(=O)[O-],-3%[70.6 µM]
Cc1ccc(-c2ccc3nnc(CNC(=O)Cc4cccc(F)c4)n3n2)cc1C,2%
O=C(NCC1CC1)C1CN(c2ccccc2)C(=O)N1 (stereo unspecified),0%[70.6 µM]
O=C(c1ccccc1F)N1CCn2c(nn(-c3ccc([N+](=O)[O-])cc3)c2=O)C1,0%
Cn1nccc1C(=O)NCCc1noc(-c2cccnc2)n1,0%
CN(C)C(=O)c1ccc2c(c1)N(C)C(CC(=O)NC(C)(CO)CO)CO2 (stereo unspecified),1%
O=C(NCc1cc(F)ccc1F)[C@@H]1CNC[C@H]1COc1cccnc1,10%
CN1CCOC[C@H]2CCN(C(=O)c3ccco3)C[C@H]21,2%
CN(Cc1csc(-c2ccccc2)n1)c1cc(C2CC(O)C2)nc(N)n1 (stereo unspecified),2.5µM*
COc1ccc(CN2CC[C@H]3COC(=O)N3c3cc(F)ccc3C2)cc1,6%[70.6 µM]
COc1ccc(CCNC(=O)c2cc3cn(C(C)C)cc3s2)cc1OC,-12%
CC(C)(C)c1ccc(C(=O)N2CCC(c3n[nH]c(=O)n3Cc3ccc(F)cc3)CC2)cc1,11µM*
Cc1nn2c(c1-c1ccccc1Oc1ccccc1)N(C(=O)c1ccc(F)cc1)CCC2,-8%[70.6 µM]
O=C(Cc1c(F)cccc1Cl)N1C[C@@H](CO)[C@H](c2ccncc2)C1,2%
O=C(CC1CCN(S(=O)(=O)c2ccc(F)cc2)C1)NCc1ccccc1 (stereo unspecified),0%
COCCN(CC1CCN(Cc2ccccc2F)CC1)C(=O)C1CCCCO1 (stereo unspecified),4%
COc1ccccc1CNC(=O)c1ccc(Cn2ccn3nc4c(c3c2=O)CCCC4)cc1,-23%
CCOc1ccc(-c2noc(-c3nc(C)no3)n2)cc1,-14%
CC(C)CNC(=O)c1ccnc(-c2nnc3ccc(Nc4ccccc4)nn23)c1,-10%[70.6 µM]
CN1CCc2nc(N(C)C)[nH]c(=O)c2CC1,2%
CC#CCn1cc2c3c(cccc31)[C@H](CC(C)C)N[C@H](C(=O)OC)C2,-11%[70.6 µM]
O=C(NCc1nnc2ccc(-c3ccc(Cl)cc3)nn12)C1(c2ccccc2)CC1,4%
O=C(CCC[C@@H]1[C@H]2CCCN3CCC[C@@H](CN1C(=O)c1cccnc1)[C@@H]23)NCCCN1CCCC1,-1%
CN(C)c1ccc(C(=O)NC2CCCN(c3cc(-c4ccccc4)[nH]n3)C2)cc1 (stereo unspecified),-14%
Cc1ccc(S(=O)(=O)NC[C@H]2OC[C@@H](NCC3CC3)[C@@H]2O)cc1,0%[70.6 µM]
Cc1nc2ncccn2c1C(=O)N1CCC(c2nccn2CC(N)=O)CC1,5%
Nc1cccc(-c2ccc(N3CCCCC3)nn2)c1,4µM*
CN(c1ccccc1)c1ccc2nnc(-c3cc(C(=O)NC4CCOCC4)ccn3)n2n1,-3%[70.6 µM]
CN1CCC(N2CC[C@H](c3nc4ccc(C#N)cc4[nH]3)C2)CC1,-2%[70.6 µM]
O=C(Cn1ccn2nc3c(c2c1=O)CCCCC3)Nc1ccccc1,19%
CCc1cccc(OCC(=O)c2ccc3c(c2)N(CCCC(=O)N2CCOCC2)C(=O)CO3)c1,-15%
CC(C)c1nc2c(c(-c3ccc(O)cc3)n1)CCN(Cc1ccsc1)CC2,-3%
COc1ccc(OCc2nc3c(n2Cc2ccccc2)C(=O)N(CC2CC2)CCN3)cc1OC,-4%
COCCc1noc(-c2nc(-c3ccc4c(c3)OCO4)no2)n1,-17%
CN(CCNC(=O)c1cccnc1N1CC2CC(C1)[C@H]1CCCC(=O)N1C2)C1CCCCC1 (stereo partly specified),1%
CN1C(=O)c2cccn2CC1CNC(=O)c1cn[nH]c1-c1ccccc1 (stereo unspecified),0%
Cc1ccc(NC(=O)Cn2c(N3CCN(c4ccccc4)CC3)nc(C)cc2=O)c(C)c1,12%
CCCNC(=O)NC[C@H]1O[C@@H]2C[C@@H](CC(=O)NCCOC)O[C@@H]2[C@@H]1O,1%[70.6 µM]
COc1ccc(-c2ccc3c(c2)C(=O)N2CCN(C(=O)C4CCNCC4)C[C@@H]2C(=O)N3)c(OC)c1,4%

# Part of the list above, with each value named:
CCc1cccc(OCC(=O)c2ccc3c(c2)N(CCCC(=O)N2CCOCC2)C(=O)CO3)c1
  hNpr1 antagonist: -15%
CC(C)c1nc2c(c(-c3ccc(O)cc3)n1)CCN(Cc1ccsc1)CC2
  hNpr1 antagonist: -3%
COc1ccc(OCc2nc3c(n2Cc2ccccc2)C(=O)N(CC2CC2)CCN3)cc1OC
  hNpr1 antagonist: -4%
COCCc1noc(-c2nc(-c3ccc4c(c3)OCO4)no2)n1
  hNpr1 antagonist: -17%

# Looked up by compound from the entries so far:
SMILES,hNpr1 antagonist
COc1ccc(CCNC(=O)c2cc3cn(C(C)C)cc3s2)cc1OC,-12%
COc1ccc(OCc2nc3c(n2Cc2ccccc2)C(=O)N(CC2CC2)CCN3)cc1OC,-4%

# (list continues)
SMILES,hNpr1 antagonist
CN(C(=O)Cn1c(=O)oc2ccccc21)C1CCc2nn(C)c(=O)n2CC1 (stereo unspecified),-2%
Cc1ccccc1CC(=O)NC1CCN(c2cc(-c3ccccc3)[nH]n2)C1 (stereo unspecified),-10%
CN(C)c1ccc(C(=O)N2CCCC(n3cc(-c4nc(C5CC5)no4)nn3)C2)cc1 (stereo unspecified),-1%
O=C(C1CCCC1)N1CCC2(CN[S+](=O)([O-])c3ccccc3N2)C1 (stereo unspecified),-2%
COc1ccc(CC(=O)N(C)Cc2cccc(C(F)(F)F)c2)cc1,3%[70.6 µM]
COc1ccccc1C(=O)N1CCN(c2cc(C(F)(F)F)ncn2)CC1,-7%
CN1CCN2C[C@@H](NC(=O)c3ccc(C#CC(C)(C)O)o3)C[C@H]2C1,11%
CCc1nc(C)c(C(=O)Nc2nn(C)c3cccc(N4CCOC4=O)c23)o1,1%
CC(C)C[C@@H](NC(=O)[C@@]1(O)C[C@@H](O)[C@H](O)[C@@H](NC(=O)c2cccnc2)C1)C(N)=O,11%[70.6 µM]
O=C1CC(c2ccccc2)N(C(=O)CNC(=O)c2[nH]nc3c2COc2ccccc2-3)CCCCCN1 (stereo unspecified),-14%

# Part of the list above in another layout.
structure | hNpr1 antagonist
CN(C)c1ccc(C(=O)N2CCCC(n3cc(-c4nc(C5CC5)no4)nn3)C2)cc1 (stereo unspecified) | -1%
CC(C)C[C@@H](NC(=O)[C@@]1(O)C[C@@H](O)[C@H](O)[C@@H](NC(=O)c2cccnc2)C1)C(N)=O | 11%[70.6 µM]
Cc1ccccc1CC(=O)NC1CCN(c2cc(-c3ccccc3)[nH]n2)C1 (stereo unspecified) | -10%

# Next compounds follow.
SMILES,hNpr1 antagonist
c1ccc(-c2n[nH]c(C3CCCCN3)n2)cc1 (stereo unspecified),6%
COc1ccc(OC)c(S(=O)(=O)N2CCC(c3ncc(C)n3C(C)C)C2)c1 (stereo unspecified),-5%
CC1CCCN(C(=O)Cn2ccn3nc(-c4ccc(F)cc4)c(CO)c3c2=O)C1 (stereo unspecified),1%
CN1C[C@H](NC2CCC2)CCC[C@@H](C(=O)NC2CCOCC2)CC1=O,-3%[70.6 µM]
COc1ncccc1-c1nccc2c(=O)cc(N(C)C3CCOCC3)oc12,-4%[70.6 µM]
CN1[C@@H](CCC(=O)N2CCCC2)CNC(=O)[C@@H]2[C@H]1CCN2Cc1ccc(C(F)(F)F)cc1,0%
COCC1CN(S(=O)(=O)c2ccc(F)c(Cl)c2)CC12CCNCC2 (stereo unspecified),-17%
COc1ccc(C2Cn3nnc(C(=O)N4CCN(C(=O)Cc5ccc(F)cc5)CC4)c3CO2)cc1 (stereo unspecified),8.9µM*
O=C(NC1CCCCC1)C1CN(S(=O)(=O)c2ccc(F)cc2F)CC12CCOCC2 (stereo unspecified),2%
COC1CCCN(c2ccc(C(=O)N3CCC(N4CCOCC4)CC3)cn2)C1 (stereo unspecified),4%
Cc1cc(C)cc(NC(=O)[C@H]2CCC[C@H]2NC(=O)c2cnc(C)cn2)c1,-1%
CC(C)N1CCCC2(CCN(S(=O)(=O)c3ccc(F)cc3F)C2)C1=O (stereo unspecified),5%
O=C(NCCc1ccncc1)C1CN(C(=O)Cc2ccc(F)cc2)CC12CCOCC2 (stereo unspecified),-1%
O=C(CC[C@@H]1CNC(=O)[C@@H]2C[C@H](NC(=O)c3cccc(F)c3)CN12)NCc1ccc(F)cc1,1%
CN(C)c1ccc(CN2CCC(c3nc4ncccc4[nH]3)C2)cc1 (stereo unspecified),-17%[70.6 µM]
COc1ccc2ccc(OCc3nc(C(=O)N4CCC(=O)NCC4C)co3)cc2c1 (stereo unspecified),-16%
CCCCNC(=O)c1ccc2c(c1)n(Cc1cccc(OC)c1)c(=O)c1ccnn12,-11%
Cc1cn(CCn2ccnc2-c2cccc(C(C)N(C)C)c2)nn1 (stereo unspecified),5%
Cc1noc2c(NC3CCC(O)CC3)cc(-c3cccs3)nc12 (stereo unspecified),0%[70.6 µM]
O=C(O)C1c2ccccc2C(=O)N(Cc2ccccc2)C12CCCC2 (stereo unspecified),-2%
O=C(c1ccc2c(c1)OCO2)N1CCC2(CN[S+](=O)([O-])c3ccccc3N2)C1 (stereo unspecified),29%
COCC(=O)N[C@@H]1CN(C(=O)C2CC2)CC[C@@H]1c1nc(C)no1,-2%
O=C(CN1C(=O)NC2(CCOCC2)C1=O)Nc1ccccc1F,10%
Cc1noc(C)c1S(=O)(=O)N1C[C@@H](F)C[C@H]1C(=O)N1CCOCC1,1%
CN(C)CCOc1cccc2c1c(NC(=O)c1ccn[nH]1)nn2-c1ccc(F)cc1,0%
O=C(NC1CCN(c2nc3ncccc3o2)CC1)c1ccc(C(F)(F)F)cc1,-23%
CCOc1cccc(CNC(=O)[C@H]2CCC[C@H]2NC(=O)c2ccc(OC)cc2)c1,4%
COc1ccc2cc(C3CN(CCC(=O)NC(C)(C)C)CCO3)ccc2c1 (stereo unspecified),?
CCCN1C(=O)CC[C@H]2CN(C(=O)c3cnc(C4CC4)[nH]c3=O)CC[C@H]21,-15%
Cc1cnc(C(=O)N[C@@H]2CCC[C@@H]2C(=O)N2CCOCC2)cn1,4%
CCNC(=O)[C@@H]1C[C@H](N)CN1S(=O)(=O)c1cc(C)cc(C)c1,5%
Cc1cccc(CCN2CCc3[nH]cnc3C2C(=O)O)n1 (stereo unspecified),0%
Cc1noc(C)c1CC(=O)N1CCCC2(C1)Nc1cccnc1NC2=NC1CCCC1 (stereo unspecified),0%
COc1cncc(CN2CCC3(CC2)COCCN3C(=O)OCc2ccccc2)c1,0%[70.6 µM]
CC1CCC2(CC1)NC(=O)N(CC(=O)NCCCc1ccccc1)C2=O (stereo unspecified),-1%
O=C(c1ccoc1)N1CCC(Oc2ccccc2)C1 (stereo unspecified),-2%
COc1ccc(-c2nnc([C@H]3CCN(Cc4ccc(F)c(F)c4)C3)o2)cc1,?
C[C@@H]1C(=O)O[C@H]2[C@H]1CC[C@@]1(C)Cc3sc(Nc4cccnc4)nc3[C@@H](C)[C@H]21,16µM*
Cc1cc(S(=O)(=O)N2CCCC(CCC(=O)N3CCOCC3)C2)n(C)n1 (stereo unspecified),-1%
Cc1cc(=O)n(CC(=O)NCCCc2ccccc2)c(N2CCc3ccccc3C2)n1,?
Cc1cc(-c2cc(-c3ccc(F)cc3)nc3c(C)noc23)ccn1,1%[70.6 µM]
COc1ccc(OC)c(CN2CCC3OCCN(Cc4ccccc4F)C(=O)C3C2)c1 (stereo unspecified),0%[70.6 µM]
CN(C)c1cc(=O)c2ccnc(-c3ccc(F)c(Cl)c3)c2o1,5%[70.6 µM]
Cc1nn2c(c1-c1ccccc1[S+](C)(=O)[O-])N(Cc1ccc(C(=O)O)s1)CCC2,3.2µM*
COCc1nc(-c2ccc(OC3CCN(C(=O)c4sc(C)nc4C)C3)cc2)no1 (stereo unspecified),-15%
CN1CC2(CCCN(CC3CC3)C2)c2cc(C(=O)N3CC(O)C3)ccc21 (stereo unspecified),-8%[70.6 µM]
O=C(c1ccccc1F)N1CCC(N2C(=O)C(O)C23CCCCC3)CC1 (stereo unspecified),8%
O=C(NC1CCCC1)N1CCN(c2nc3ncccc3o2)CC1,-1%[70.6 µM]

# Bioassay records (PubChem)

# An excerpt. The share of hits here may be higher or lower than overall.
